Calb biofilm kill = mixture kills Candida albicans biofilm cells | C. albicans biofilm persisters + clotrimazole, fluorescence viability; primary screen in compound mixtures of four per well | inhibition, % at 7.6 µM | actives 0.02% (n = 120,000) | AID 1242;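 active = inhibition above 30.3% in the primary screen of four-compound pools, then above 30% when the compound was retested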;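 also: compounds exposed to preformed 24 h biofilms for 48 h; the number belongs to the whole pool; some results filed as inactive read as strong as hits; inactives centre near 12; 0% = biofilm with clotrimazole alone and 100% = kill control; retested singly at about 60 µM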
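System: C. albicans CAF4-2 wild-type biofilms; Medium: RPMI/MOPS medium, pH 7.0; Reagent: Clotrimazole, 50 µg/mL; Times: biofilm formation 24 h, compound exposure 48 h, 37 °C; Detection: 2-h Alamar Blue fluorescence, 535/590 nm excitation/emission; Evaluation: percent inhibition of biofilm viability.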
Numbers without * were called inactive. Some of the compounds tested; the hit share may differ from the screen's.

smiles | Calb biofilm kill
CC(=O)NCCC(=O)Nc1cc(S(=O)(=O)N2CCOCC2)ccc1N1CCOCC1 | 29
Cc1cccc(NC(=S)NC2CCN(Cc3ccccc3)CC2)c1C | 19
Cc1cccc(N2CC(O)(c3cccs3)[N+]3=C2CCCCC3)c1 (centres undefined) | -3
Cc1cccc(-c2n[nH]c(=S)n2/N=C/c2ccc(C)s2)c1 | 12
Clc1ccc(CNc2ccc3nnc(-c4ccccc4)n3n2)cc1 | 16
Cc1nnc(SCc2ccc(Cl)cc2)nc1/C=C/N(C)C | -1
S=C(Nc1cccc(Cl)c1)Nc1ccc2cn[nH]c2c1 | 8
Cc1cccc2c1N(C)C(=O)C2=O | 3
CCCCNC(=O)Nc1nnc(C(C)(C)C)s1 | 20
O=C(Nc1ccc(NC(=O)c2sc3ccccc3c2Cl)cc1)c1ccco1 | 0
CCCNC(=O)c1ccc(Cl)cc1Cl | 23
C[C@@H]1C[C@H]2[C@@H]3CCC4=CC(=O)C=C[C@]4(C)[C@@]3(F)[C@@H](O)C[C@]2(C)[C@H]1C(=O)CO | 15
CCN(Cc1ccncc1)C(=S)NCc1ccccc1 | -13
Cc1ccc(/C=N/n2c(C3CCCCC3)n[nH]c2=S)o1 | 21
CCC/C(=N/NC(=O)c1ccc2c(c1)OCO2)c1cccs1 | 7
C/C(=N\NC(N)=S)c1ccc2c(c1)OCCO2 | 14
CCCC1=C(C(=O)OCC)C(c2cccnc2)n2nc(C)nc2N1 (centres undefined) | 16
O=C(CCCN1C(=O)/C(=C\c2cccs2)SC1=S)Nc1ccccn1 | 15
O=C(Nc1ccccc1)c1cn2ccccc2n1 | 22
Cc1ccc(C)c(NC(=S)NC(NC(=O)OCc2ccccc2)C(Cl)(Cl)Cl)c1 (centres undefined) | 18
C/C(CC(=O)NC(C)(C)C)=N\NC(N)=S | 14
Cc1nn(-c2ccccc2Cl)c2sc(C(=O)Nc3nnc(C4CC4)s3)cc12 | 5
CC(C)(C)CC(=O)Nc1nnc(SCC(=O)Nc2ccccc2F)s1 | 20
COc1cc(Cc2cnc(N)nc2N)cc(OC)c1OC | 17
Cc1cc(C)c(S(=O)(=O)n2c([N+](=O)[O-])cnc2C)cc1C | 16
CCNC(=O)COC(=O)c1csc2c1CCCC2 | 17
Nc1nc(SCC(=O)c2ccc(F)cc2)n[nH]1 | 12
C=CCn1c(C)cc(-c2csc(NCC)n2)c1C | 14
COc1cccc(CNc2ccc(C)c(Cl)c2)c1 | 14
Cc1ccc(CSc2nncn2-c2ccccn2)cc1 | 2
CCN1CCN(c2cc(C)c3cc(NC(=O)c4cc(OC)cc(OC)c4)ccc3n2)CC1 | 19
Cc1nc(C(C)N(C)Cc2nc(Cc3ccccc3F)no2)c(C)s1 (centres undefined) | 23
COc1cc(CNC(C)(C)C)cc(Br)c1OCc1cccs1 | 13
Cc1ccnc(-n2c(C)cc(C=O)c2C)c1 | 2
CCOC(=O)C(=CNc1cscc1S(=O)(=O)C(C)C)C(=O)OCC | 29
O=C(O)/C=C/c1cn(-c2ccccc2)nc1-c1ccc2c(c1)OCCO2 | 16
O=P(OC1CCCCC1)(OC1CCCCC1)C(Nc1ccccc1)c1cccnc1 (centres undefined) | 9
Cc1cc(C)n2nc(SCC(=O)N(C)c3c(N)n(Cc4ccccc4)c(=O)[nH]c3=O)nc2n1 | 7
Cc1ccc(N2CC(C(=O)O)CC2=O)cc1 (centres undefined) | 3
Cc1cccc(Nc2nc(NCc3ccco3)c3ccccc3n2)c1 | 16
COCCNC(=O)/C(C#N)=C/c1ccc2c(c1)OCO2 | 15
Cc1ccc(C(=O)CC(SCC(=O)O)c2ccc([N+](=O)[O-])cc2)cc1 (centres undefined) | 14
CC1(C)CC(NC(=O)Nc2ccc([N+](=O)[O-])cc2)CC(C)(C)N1 | 15
Nc1ccccc1-n1cccc1 | 14
OCC1(CCc2ccccc2)CCN(Cc2cnc(N3CCCC3)s2)CC1 | 10
N/C(=N\OC(=O)CCC(=O)O)c1ncc(C(F)(F)F)cc1Cl | 2
O=C(CCCN1C(=O)c2ccccc2C1=O)N1CCOCC1 | 6
Cc1ccc(S(=O)(=O)N2CCC(=O)N(CCOC(=O)Nc3ccc(C)c(C)c3)CC2)cc1 | 9
CCCCNC(=O)Cn1cnc([N+](=O)[O-])n1 | 31
COc1ccc(-n2nc(C)cc2Nc2ccccc2C(=O)O)cc1 | 20
O=C(COC(=O)c1ccc([N+](=O)[O-])o1)NC1CCS(=O)(=O)C1 (centres undefined) | 5
COc1ccccc1NC(=S)N(Cc1ccco1)Cc1cc2cc(C)ccc2[nH]c1=O | 21
Clc1ccc(-c2noc(CN(Cc3ccccn3)CC3CCCO3)n2)cc1 (centres undefined) | 28
O=C1CC(Sc2cccs2)C(=O)N1c1ccccc1 (centres undefined) | 10
COc1ccc2nc(C)cc(SCC(=O)Nc3c(C)cccc3C)c2c1 | 15
Fc1cccc(F)c1/C=N/NC(=S)Nc1cccnc1 | 17
COc1cc(C2C3=C(CCCC3=O)Nc3ccc4ncccc4c32)ccc1O (centres undefined) | 14
COc1cc(C(=O)Nc2nnc(SC)s2)c([N+](=O)[O-])cc1OC | 7
COc1cc(/C=C2\CCCc3c2nc2ccccc2c3C(=O)O)cc(OC)c1O | 17
Cc1nc2c(nnn2Cc2ccccc2)c(=O)[nH]1 | 12

Three records picked at random from those above, as already listed:
smiles | Calb biofilm kill
CCCNC(=O)c1ccc(Cl)cc1Cl | 23
CCCCNC(=O)Nc1nnc(C(C)(C)C)s1 | 20
COc1ccccc1NC(=S)N(Cc1ccco1)Cc1cc2cc(C)ccc2[nH]c1=O | 21

Next records:
smiles | Calb biofilm kill
O=C(O)/C=C/c1ccc(S(=O)(=O)N2CCCCCC2)cc1 | 10
Cc1ccc(NC(=O)CNCc2ccccn2)cc1S(=O)(=O)N(C)C | 25
O=C(N/N=C/c1ccncc1)c1cc(Br)ccc1OCc1ccccc1 | 26
O=C(Cn1c(N2CCN(C/C=C/c3ccccc3)CC2)nc2ccccc21)c1ccccc1 | 9
CC(C)(C)[C@H]1C=C(C(=O)Nc2ccccc2)O[C@@H](OCc2ccc(CO)cc2)C1 | 19
O=C(NCCc1ccc2c(c1)OCCO2)c1cc(F)cc(F)c1 | 20
O=C(CN1C(=O)c2cccc3cccc(c23)C1=O)N1CCN(c2ccccn2)CC1 | 7
Cc1cc(=O)[nH]c(SCC(=O)Nc2ccccc2C)n1 | 26
O=C(c1ccco1)N1N=C2CCCCCC2C1(O)C(F)(F)F (centres undefined) | 6
Cc1cccc(NC(=S)NNC(=S)NC2CCCCC2)c1C | 16
Cn1cnnc1SCc1ccccc1[N+](=O)[O-] | 10
S=C(NNc1ccc2ccccc2c1)NC1CCCCC1 | 9
O=C(CSc1cc(Cl)ccc1Cl)NCC(=O)Nc1ccc(F)c(F)c1F | 8
Cc1cc(NC(=O)c2cc([N+](=O)[O-])cc([N+](=O)[O-])c2C)no1 | -1
CCC(=O)OCCNc1cc(SCCC(=O)OC)c2nonc2c1[N+](=O)[O-] | 22
Cc1ccc[n+](CC2OCc3ccccc3CO2)c1 | 14
Cc1sc2ncnc(N=Nc3c(O)[nH]c4ccccc34)c2c1C | 16
CCOC(=O)c1ccc(NC(=O)CC2SC3=NCCN3C2=O)cc1 (centres undefined) | 14
CN(CCc1cnn(C)c1)Cc1nc(Cc2ccccc2)no1 | 14
COc1ccc(S(=O)(=O)N2CCSC2)cc1C | 21
CCOc1ccc(C(=O)Nc2ccccc2OC(F)F)cc1 | 2
O=C(NCCNc1ccc([N+](=O)[O-])cc1C(F)(F)F)c1ccc(F)cc1 | 8
Cc1ccccc1Nc1nc(N)c2ccccc2n1 | 12
COc1ccccc1OCCC(=O)OCC(=O)NC(C)c1ccccc1 (centres undefined) | 8
CCC(C)NCCCOc1c(C)cc(C)cc1Br (centres undefined) | 14
N/C(Cc1ccc([N+](=O)[O-])cc1)=N\OC(=O)Cc1ccc(Cl)cc1 | 13
Cc1cc2c(cc1S(=O)(=O)N1CCc3ccccc31)NC(=O)CO2 | 15
COC(=O)C1=CN(c2ccc(OC)cc2)C=C(C(=O)OC)C1c1ccc(C)c([N+](=O)[O-])c1 | 6
CCCCNC(=O)NNC(=O)COc1cc(C)cc(C)c1 | 4
COc1ccc(CNC(=O)CN(C)S(=O)(=O)c2ccccc2)cc1 | 10

Gathered by group: the compounds so far containing a CF3 group
smiles | Calb biofilm kill
N/C(=N\OC(=O)CCC(=O)O)c1ncc(C(F)(F)F)cc1Cl | 2
O=C(c1ccco1)N1N=C2CCCCCC2C1(O)C(F)(F)F (centres undefined) | 6
O=C(NCCNc1ccc([N+](=O)[O-])cc1C(F)(F)F)c1ccc(F)cc1 | 8

Going on with the list.
smiles | Calb biofilm kill
CNC(=S)Nc1ccc([N+](=O)[O-])cc1C | -9
CNC(=O)c1c(C)[nH]c(=S)c(C#N)c1-c1ccco1 | 7
CN1CCN(NC(=O)COc2cccc(C(F)(F)F)c2)CC1 | 21
S=C1NCN(Cc2cccnc2)CN1 | 11
CCOC(=O)c1cc(-c2ccc(C)cc2)n(CCC(=O)N2CCN(c3ccccn3)CC2)c1C | 6
Cc1ccc(C(=O)Nc2ccc(C(=O)O)cc2)cc1S(=O)(=O)NCc1ccccc1 | 15
CC(C)C[C@H](NC(=O)c1nc[nH]c1C(=O)N1CCN(c2ccccc2)CC1)C(=O)OCc1ccccc1 | 13
CCN(CC(=O)Nc1ccc(S(=O)(=O)N2CCCC2)cc1)CC(=O)Nc1cccc(OC)c1 | 6
O=C(O)c1cc2c(N3CCC(Cc4ccccc4)CC3)ncnc2s1 | 8
COCC(=O)N1CCC(n2nnc3cc(C(F)(F)F)ccc32)CC1 | 21
O=C(O)CCCNC(=O)/C(=C\c1ccccc1F)NC(=O)c1ccccc1 | 13
O=C1NN=C(c2ccccc2)CC1c1ccc(Cl)cc1Cl (centres undefined) | 16
O=C(O)c1cc([N+](=O)[O-])ccc1NCc1ccccc1 | 20
Cc1c(C(=O)c2ccc(F)cc2)c2ccccn2c1CCc1ccccn1 | 13
O=C(Nc1ccc(SC(F)F)cc1)C12CCC(CC1)C2 | 3
COc1ccc(C(Nc2ccccn2)c2oc(CO)cc(=O)c2O)cc1 (centres undefined) | 14
O=C(O)/C=C\C(=O)N1CCc2ccccc21 | 28
NS(=O)(=O)c1ccc(CCNC(=O)/C=C/c2ccc([N+](=O)[O-])cc2)cc1 | 10
CCN(CCCNC(=O)CSc1cc(=O)n(C)c2cc(Cl)ccc12)Cc1ccccc1 | 13
O=C(Nc1ccn(-c2ccccc2)n1)c1ccc(Cl)cc1 | 15
CN=C1CC(SC)=C1c1ccc(C)cc1 | 1
CCCCC(=O)c1ccc(O)cc1O | 21
S=C(NCCCN1CCOCC1)Nc1ccc(Cl)cc1Cl | 8
O=C(N/N=C/c1ccc(N2CCOCC2)cc1)C1CC1 | 9
O=C1CC(c2ccco2)CC(O)=C1C=NCCN1CCN(C(=S)Nc2ccccc2)CC1 (centres undefined) | 1
Cc1ccc(NC(=O)Cn2nc(C)c(S(=O)(=O)N(C)C)c2C)cc1 | 17
COc1cccc(-c2onc3ccc(C4(C)OCCO4)cc23)c1 | 18
Cc1[nH]c2ccccc2c1C(=O)/C=C/c1ccccc1Cl | 17
COc1ccc(S(=O)(=O)NC(C)C(=O)Nc2cccc([N+](=O)[O-])c2)cc1 (centres undefined) | 8
Cc1onc(-c2ccccc2)c1C(=O)N/N=C/c1cc(Br)c(Br)o1 | 7
CC(C)(C)c1csc(NNC(=O)c2ccc(Br)cc2)n1 | 15
Cc1cc(C)nc(NS(=O)(=O)c2ccc(N3C(=O)C4C5C=CC(C5)C4C3=O)cc2)n1 (centres undefined) | 10
COc1ccccc1CC(=O)NN1C(=O)c2ccccc2C1=O | 11
COc1ccc(Cl)cc1NC(=O)C/C(C)=N/NC(=O)Cc1ccccc1 | 12
O=C(CN(C(=O)c1ccc(Cl)cc1)C1CCCCC1)Nc1ccc(Cl)c([N+](=O)[O-])c1 | 16
CCN(Cc1ccccc1)C(=O)COC(=O)CNS(=O)(=O)c1ccc(C)cc1 | 17
O=c1cc[nH]c2cc(Cl)ccc12 | 13
COc1ccc(C2/C(=C(/O)c3ccccc3)C(=O)C(=O)N2c2ncccn2)cc1OC (centres undefined) | 17
CC(=O)NC(C(=O)c1ccccc1)C(=O)c1ccccc1 | 14
CC(C)(C)N(Cc1ccccc1)C(=O)c1ccc(Cl)cc1[N+](=O)[O-] | 8
CCOC(=O)Cc1nnc(Nc2cc(C)ccc2C)c2ccccc12 | 19
O=C(CSc1cccc2cccnc12)N/N=C/c1ccc(F)cc1 | 13
Cc1ccc(S(=O)(=O)N/N=C2\C(=O)C3(C)CCC2C3(C)C)cc1 (centres undefined) | 15
O=C(O)c1ccc(Sc2ccccn2)c([N+](=O)[O-])c1 | 8
O=C(NCc1cccs1)C1CCCN1C(=O)Nc1ccc(Cl)cc1 (centres undefined) | 21
CC1=C(C(=O)NC(C)c2ccccc2)C2(CCC(C)CC2)OC1=O (centres undefined) | 25
CCCCNC(=O)Oc1cc(CCl)on1 | 24
O=C(CC1Nc2c3ccccc3nc(=S)n2C1=O)NC1CCCCC1 (centres undefined) | 11

Screens: PubChem BioAssay, PCMD
